hNpr1 antagonist: human Npr1 receptor antagonism; P16066; HEK293 hNpr1 GloSensor cGMP, ANP-stimulated luminescence; Potency, µM (series often up to 46.3 µM), for the others: top-dose activity change, negative = inhibition, usual class: inhibitors; 76,000 tested, 1.6% active; AID 1347048; active = well fitted inhibition curve with a large enough effect; inconclusive = small, poorly fitted or top-dose-only effect; inactive = no such curve, though single readings can be large or run the other way;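 further: nearly all actives have a fitted effect of over 60% in size; nearly all hits also lower the signal before the agonist is added; a reference antagonist and vehicle were the controls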
Target sequence (P16066 whole entry, looked up): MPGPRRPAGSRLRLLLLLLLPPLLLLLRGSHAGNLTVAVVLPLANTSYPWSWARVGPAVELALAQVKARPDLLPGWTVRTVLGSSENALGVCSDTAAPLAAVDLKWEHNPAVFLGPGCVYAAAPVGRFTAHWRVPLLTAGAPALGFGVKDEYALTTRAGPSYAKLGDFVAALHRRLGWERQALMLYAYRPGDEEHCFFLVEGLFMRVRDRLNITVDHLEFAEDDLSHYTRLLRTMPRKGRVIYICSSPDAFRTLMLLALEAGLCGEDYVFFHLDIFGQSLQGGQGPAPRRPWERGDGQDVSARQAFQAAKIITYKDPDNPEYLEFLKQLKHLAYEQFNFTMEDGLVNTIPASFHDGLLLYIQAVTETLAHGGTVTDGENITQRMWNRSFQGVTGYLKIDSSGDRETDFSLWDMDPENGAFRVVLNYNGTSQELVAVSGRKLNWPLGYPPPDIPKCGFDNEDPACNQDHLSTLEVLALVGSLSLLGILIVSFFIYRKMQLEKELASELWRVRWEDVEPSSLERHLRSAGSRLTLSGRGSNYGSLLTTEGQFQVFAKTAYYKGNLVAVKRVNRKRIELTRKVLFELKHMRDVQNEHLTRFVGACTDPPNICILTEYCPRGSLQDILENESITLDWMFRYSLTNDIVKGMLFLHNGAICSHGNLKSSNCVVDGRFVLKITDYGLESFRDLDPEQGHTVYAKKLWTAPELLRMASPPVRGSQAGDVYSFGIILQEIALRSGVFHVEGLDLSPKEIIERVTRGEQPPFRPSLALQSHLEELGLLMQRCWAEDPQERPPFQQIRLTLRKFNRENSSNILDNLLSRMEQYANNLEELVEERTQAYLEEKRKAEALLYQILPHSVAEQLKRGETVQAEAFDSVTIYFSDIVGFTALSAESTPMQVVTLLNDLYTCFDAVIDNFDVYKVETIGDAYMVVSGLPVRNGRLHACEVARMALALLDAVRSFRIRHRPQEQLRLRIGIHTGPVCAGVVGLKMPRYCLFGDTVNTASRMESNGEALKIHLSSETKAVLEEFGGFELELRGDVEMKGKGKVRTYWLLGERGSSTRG
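Compound pre-incubated 30 min at room temperature on GloSensor-loaded HEK293 cells stably carrying hNpr1 and the pGS-40F cGMP biosensor. Stimulation uses hNppA at 0.1 nM final; luminescence is taken at baseline and 20 min post-agonist.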
An asterisk follows results filed as active; ? = inconclusive; & = joins results of further samples; [ ] = dose if it differs, or a comment. On the % scale 0 is the no-effect control and ±100 the full control effect; potency means the concentration at half of the fitted maximal effect. This is a subset (hit frequency here may not be typical).

Preview (3 entries):
| Compound | hNpr1 antagonist |
| --- | --- |
| O[C@@H]1C[C@@H](c2nc(-c3ccccc3)no2)N(Cc2cccc(OC(F)(F)F)c2)C1 | -1.1%[70.6 µM] |
| COCC(=O)N1CCC2(CC1)CC(Cc1nc(-c3cccnc3)no1)CCO2 (stereo unspecified) | 3.7% |
| CN1CCC(CN2CCC3(CC2)COCCN3C(=O)c2ccccc2)CC1 | 2.9%[70.6 µM] |

All compounds of this part (from the top)
| Compound | hNpr1 antagonist |
| --- | --- |
| O[C@@H]1C[C@@H](c2nc(-c3ccccc3)no2)N(Cc2cccc(OC(F)(F)F)c2)C1 | -1.1%[70.6 µM] |
| COCC(=O)N1CCC2(CC1)CC(Cc1nc(-c3cccnc3)no1)CCO2 (stereo unspecified) | 3.7% |
| CN1CCC(CN2CCC3(CC2)COCCN3C(=O)c2ccccc2)CC1 | 2.9%[70.6 µM] |
| OC1CC(c2cc(N3CCN(c4nsc5ccccc45)CC3)ncn2)C1 (stereo unspecified) | 1.58µM* |
| O=C(NCc1ccco1)c1cc2n(n1)CC(c1ccc3c(c1)OCO3)OC2 (stereo unspecified) | -0.8% |
| CN(CC1CCOC1)S(=O)(=O)c1cccc(F)c1 (stereo unspecified) | 3.4% |
| CC(C)CCNC(=O)CCN(CC(C)C)C(=O)c1ccoc1 | -1.0% |
| COc1cccc(NC(=O)Cn2c(=O)c3c(n2Cc2ccccc2)CN(Cc2ccccc2)CC3)c1 | -4.6% |
| COc1ccc(-c2ccnc(N[C@H]3CO[C@H]4[C@@H]3OC[C@H]4OCC(=O)N(C)C)n2)cc1 | -1.5%[70.6 µM] |
| O=C(CN1CCCc2nc(C3CC3)ncc2C1=O)NCCCn1cccn1 | -0.6% |
| CN1[C@@H](CCC(=O)N2CCOCC2)CNC(=O)[C@@H]2[C@H]1CCN2Cc1ccccc1 | -2.4%[70.6 µM] |
| Cc1sc2cc(C(=O)NCc3cccnc3)[nH]c2c1CN1CCCCC1 | -11.5% |
| O=C1c2c(nc(COc3ccc(F)cc3F)n2Cc2ccccc2)NCCN1Cc1ccccc1F | -9.4% |
| O=C1N[C@H](CC(=O)N2CCOC(c3ccccc3)C2)C(=O)Nc2ccccc21 (stereo partly specified) | 3.3% |
| CN1CC2(CCCN(C(=O)c3conc3-c3ccccc3)CC2)OC1=O (stereo unspecified) | -0.7% |
| Cc1cccc(NC(=O)Cn2nc3n(c2=O)CCCC3)c1C | -2.2% |
| CCOc1ccc(NC(=O)NCCc2noc(-c3ccccc3)n2)cc1 | -2.8% |
| CN(C)c1nccnc1OC1CCN(S(=O)(=O)c2ccccc2)C1 (stereo unspecified) | 0.8% |
| CC1(C)C[C@H](NCC2CCCCC2)[C@@]2(CCC(=O)N3CCCC3)CC[C@](C)(O)C[C@@H]12 | -1.2%[70.6 µM] |
| COc1ccc(-c2nc(-c3ccccc3)nc3c2CN(C(=O)c2ccc(C(F)(F)F)cc2)CC3)cc1 | 2.5% |
| O=C(CCC1CCN(S(=O)(=O)c2ccccc2)CC1)NCc1ccco1 | -0.4% |
| O=C1CCC2(CCCO2)CCN1Cc1cccc(F)c1F (stereo unspecified) | -4.0% |
| Cc1cc(C)cc(C(=O)NC2CCN(c3cc(-c4ccccc4)[nH]n3)CC2)c1 | -12.1% |
| CC(C)C(=O)Nc1ccc(C2(C(=O)NCC3CC3)CCCCC2)cc1 | -2.3% |
| COc1ccc(N2C(=O)C3(CCCCC3)C2C(=O)N(C)C)cc1 (stereo unspecified) | 1.2% |
| CCn1cc(-c2ccc(Cl)cc2)cc1C(=O)NCC(=O)OC | 2.3% |
| COC(=O)[C@@H]1Cc2c([nH]c3ccccc23)[C@H]2C[C@H](NCCNC(C)=O)C[C@@H](c3ccc(C)cc3)N21 | 2.5% |
| Cc1ccc(S(=O)(=O)N2[C@@H]3CC[C@H]2CC(NC(=O)c2ccncc2)C3)cc1 (stereo partly specified) | 3.0% |
| COc1ccccc1-n1cc(C(=O)N2CCC3(CCNC(=O)CC3)CC2)cn1 | -0.8% |
| COCCC(=O)NC[C@@H]1C=C(C)[C@H](CC(=O)N(C)Cc2cccnc2)C[C@H]1C(C)C | -4.0%[70.6 µM] |
| COc1ccc(C2=NOC3(CCN(C(=O)c4ccccc4OC)C3)C2)cc1 (stereo unspecified) | -6.3% |
| CN(C)c1cccc(Oc2nnnn2[C@H]2CO[C@H]3[C@@H]2OC[C@@H]3NC(=O)CC(C)(C)CC(=O)O)c1 | 1.4% |
| COc1cccc(CN2CC[C@@H](CO)N(C)c3nc(C)ccc3C2)c1 | -6.2%[70.6 µM] |
| O=C(NC1CC1)[C@@H]1C[C@H](Oc2cccnc2)CN1C(=O)Cc1cccc(F)c1 | -0.2% |
| O=C(N[C@H]1CCN2C(=O)c3cc(-c4ccc(Cl)cc4)ccc3NC(=O)[C@H]12)c1cccs1 | -15.4% |
| O=C(O)C[C@@H]1CCN(Cc2ccccc2O)C[C@@H]1CCN1C[C@@H]2C[C@H](C1)c1cccc(=O)n1C2 | 7.1% |
| Cc1cc(C)cc(N2CCC(NC(=O)c3ccc(Cl)s3)C2=O)c1 (stereo unspecified) | -1.3% |
| CC(C)(C)CNC1(Cc2cc(-c3ccccn3)on2)COC1 | 2.6%[70.6 µM] |
| COCCN(C)C[C@H]1C[C@H](CO)CN(C(=O)c2c(C)cccc2OC)C1 | 2.9% |
| Cc1ccc(CNC(=O)Cn2nc3n(c2=O)CCCCC3)cc1 | 7.7% |
| O=C(c1ccccc1)N1CCN(C(=O)c2nnn3c2COC(c2ccc(Cl)cc2)C3)CC1 (stereo unspecified) | -15.7% |
| CCc1nc(NC(=O)C[C@H]2NC(=O)c3ccccc3NC2=O)sc1C | -17.3% |
| Cc1ccccc1-c1noc(CCCC(=O)N2CCn3nc(CO)cc3C2)n1 | -21.4% |
| CCc1cc(NCc2nc(-c3ccncc3)n[nH]2)n2nc(C)c(C)c2n1 | 1.8% |
| COc1ccc(C(=O)NC2CCN(c3cnn(CC4CC4)c(=O)c3)CC2)cc1 | -1.4% |
| CCC(=O)N1CCc2oc(C)c(C(=O)N(C)C)c2C1 | -2.1% |
| Cn1nc(C2CCN(C(=O)Cn3nnnc3N)CC2)n(-c2ccccc2)c1=O | 0.4% |
| CCC[C@H]1CN(C(=O)c2cccc(N3CCOCC3)c2)C[C@@H]1N | 1.8% |
| CC(=O)NC[C@H]1OC[C@@H](NCC(C)(C)C)[C@@H]1O | 4.1%[70.6 µM] |
| CNC(=O)[C@@H]1CN(C(=O)C2CC=CC2)C[C@H]1CO | -2.8% |

The results go on:
| Compound | hNpr1 antagonist |
| --- | --- |
| COc1ccc(NC(=O)Cn2c(C)cc3nc4n(c(=O)c32)CCCCC4)cc1Cl | -4.1% |
| COc1cccc(C(=O)N2CCC(Oc3ccc(C(=O)N4CCOCC4)cn3)CC2)c1 | 3.7% |
| O=C1NCCCCCCN(C(=O)C2CCC2)[C@H]2C[C@H](c3nc(-c4cccnc4)no3)C[C@@H]12 | 6.8% |
| Cn1cc(C(=O)N2CCC3(CCN(C4CCOCC4)CC3)C(CO)C2)cn1 (stereo unspecified) | 4.6% |
| CCN(CC)C(=O)CC[C@H]1CNC(=O)[C@@H]2[C@@H](CCN2Cc2csnn2)N1C | 6.3%[70.6 µM] |
| COCCNC(=O)NC[C@H]1O[C@@H]2C[C@@H](CC(=O)NCc3nccn3C)O[C@@H]2[C@@H]1O | 0.8%[70.6 µM] |
| CN(C)CCNC(=O)C[C@@H]1c2nc(NC(=O)c3ccco3)sc2C[C@@H]2[C@](C)(CO)[C@H](O)CC[C@]21C | 0.0% |
| COc1ccc(CCNC(=O)c2c(C)noc2-c2cccs2)cc1 | -3.7% |
| COc1ccc(N2CC(C(=O)N3CCC(C(=O)NCc4ccc(F)cc4)C3)NC2=O)cc1 (stereo unspecified) | 6.0%&0.0% |
| O=C(N[C@H]1CCOC[C@H]1C1CCOCC1)c1cc2ncccn2n1 | 0.9% |
| CC(C)C(=O)N1CCc2[nH]nc(C(=O)NCCCc3ccccc3)c2C1 | 0.0% |
| O=C(c1ccc(C2CCCNC2)cc1)N1CCCN(c2ccc(F)cc2)CC1 (stereo unspecified) | -3.6% |
| Cc1noc([C@H]2CCN(S(=O)(=O)c3c(C)noc3C)C[C@H]2NC(=O)C2CC2)n1 | -1.8% |
| COC(=O)[C@H](Cc1ccc(OC)cc1)NC(=O)[C@H]1CN(C(=O)c2ccc(N(C)C)cc2)CCN1C(=O)c1cccs1 | 1.2% |
| CN(Cc1ccccc1)C(=O)c1coc(CN2CCN(c3ccccc3F)CC2)n1 | -6.0% |
| COc1cccc(CNC2CCCc3nc(-c4cccnc4)ncc32)c1 (stereo unspecified) | 3.3% |
| CN(C)c1ccc(CN2CCC(N3CCCCCC3=O)CC2)cc1 | 1.3%[70.6 µM] |
| CCOc1ccc(-c2cc3c(=O)n(CCNC(=O)c4ccc(OC)cc4)ccn3n2)cc1 | -19.9% |
| CCNC[C@H]1O[C@H](Cc2cc(-c3ccc(F)cc3)on2)CC[C@@H]1O | ? |
| CCc1ccc(C(=O)NC2CCN(c3cnn(CC4CC4)c(=O)c3)CC2)cc1 | -22.4% |
| O=C1CCN(C(=O)C2CCN(C(=O)c3ccoc3)CC2)CCCCCCN1 | 7.4% |
| Cn1nc(C(=O)N2C[C@@H](CO)[C@H](c3ccccn3)C2)c2ccccc21 | -10.5% |
| Cc1ccccc1CN1Cc2nc(N3CCCC3)ccc2OCC1=O | -0.7%[70.6 µM] |
| O=C(c1cnccn1)N1CCCCCC1c1nnc(-c2ccccc2)o1 (stereo unspecified) | -3.8% |
| Cc1cccc2c1nc1n2[C@@H](CNC(=O)c2ccc3c(c2)OCO3)COC1 | 4.7%[70.6 µM] |
| O=C(N[C@H](c1ccccn1)C1CC(O)C1)c1cc(=O)n(-c2ccccc2)[nH]1 (stereo partly specified) | 1.9% |
| CC(=O)N1CCC(N2CCOC[C@H]2c2ncc(C(C)(C)C)[nH]2)CC1 | 1.0%[70.6 µM] |
| O=C(O)c1cccc(-c2n[nH]c3c2CC(=O)N(CCOc2ccccc2)C3)c1 | -0.6%[70.6 µM] |
| COc1ccc(NC(=O)c2cccc3c2CCN3C(=O)Nc2ccc(F)cc2)c(C)c1 | 11.2µM* |
| COC(=O)[C@@H]1Cc2ncn(Cc3ccc(Cl)cc3)c2CN1C(=O)CC(C)(C)CC(=O)O | 3.2% |
| COc1ccc(-c2noc(-c3cccn3CC(=O)NCCc3ccccc3)n2)cc1F | -1.5% |
| Cc1cccc(C(=O)NCCc2noc(-c3cccnc3)n2)c1 | 0.0% |
| COc1cccc(-c2nn(-c3ccccc3)c(OC(C)=O)c2-c2ccc(NC(=O)C3CCCC3)cc2)c1 | -17.2% |
| CCCN1CCc2[nH]cnc2C12CCN(C(=O)CC1C=CS(=O)(=O)C1)CC2 (stereo unspecified) | 6.6% |
| O=C(Cc1ccccc1)Nc1ccnn1C1CCN(Cc2ccc3cccc(F)c3n2)CC1 | -11.0% |
| Cc1cc(F)ccc1-c1[nH]nc2ncc(-c3ccsc3)nc12 | -0.7%[70.6 µM] |
| COCCNC(=O)c1noc(-c2ccc[nH]c2=O)n1 | 3.6% |
| Cc1noc(-c2cn(C3CCCN(C(=O)c4ccc(C)c(C)c4)C3)nn2)n1 (stereo unspecified) | -13.0% |
| c1ccc(-c2ccc3ncc(Nc4ccc(N5CCOCC5)cc4)n3n2)cc1 | 2.2%[70.6 µM] |
| Cc1cnn(CC(=O)N[C@@H]2CN(C3CCOCC3)C[C@H]2CN(C)C)c1 | 9.2% |
| COc1ccccc1-n1cc(CNC(=O)C(N)c2c(C)n[nH]c2C)cn1 (stereo unspecified) | 0.0% |
| O=C([C@H]1C[C@H](Oc2ccccc2)CN1C(=O)c1ccco1)N1CCOCC1 | -3.8% |
| CC(C)CNC(=O)N1CCC2(CC1)CC(N(C)Cc1ccccc1)CCO2 (stereo unspecified) | 1.0% |
| CCCNc1cc(N2CCC(CCC(=O)N(C)CCc3ccncc3)CC2)ncn1 | ? |
| OCCNc1cc(N2CCCC(CO)(Cc3ccccc3F)C2)ncn1 (stereo unspecified) | ? |
| C[C@@H](NC(=O)Cc1ccccc1)c1c(-c2ccc(F)cc2)noc1C(=O)O | -11.3%[70.6 µM] |
| COc1ccc(-c2ccc3nnc(CNC(=O)c4ccc[nH]4)n3n2)cc1 | -2.4% |
| CCC(C)NC(=O)C(NC(=O)c1ccc(C)cc1)C1CCN(C(=O)c2ccccc2C)CC1 (stereo unspecified) | 2.4% |
| COCCN1CCCCCC(O)c2cc(C(=O)NCC3CCCCC3)ccc21 (stereo unspecified) | 1.5% |
| CCn1ncc(C(=O)N2CCC(C3CCN(S(C)(=O)=O)CC3)C2)c1C (stereo unspecified) | 7.7% |

Carrying on:
| Compound | hNpr1 antagonist |
| --- | --- |
| Cc1cccc(CNC[C@H]2Cn3c(-c4ccc(Cl)cc4)cnc3CO2)n1 | -15.2%[70.6 µM] |
| O=C1CCN(C(=O)c2ccoc2)CCCC(c2nc(-c3cccnc3)no2)CCN1 (stereo unspecified) | 2.9% |
| Cc1ccc(C(=O)N2CCC3(CC2)CC(OCC2CC2)CCO3)cn1 (stereo unspecified) | 0.0% |
| COc1cccc(CNC(=O)Cn2c(N3CCc4ccccc4C3)nc(C)cc2=O)c1 | -4.4% |
| Cc1ncc2n1C(=O)N(C1CCN(C(=O)Nc3ccc(Cl)cc3)CC1)C2 | ? |
| O=C(NCCc1ccncc1)C1CN(C(=O)c2cccc(Cl)c2)CC12CCOCC2 (stereo unspecified) | 2.4% |
| CCC(O)c1cc2n(n1)CCN(c1ncc(F)c(N3CCOCC3)n1)C2 (stereo unspecified) | 0.2% |
| COc1ccc(-c2noc(-c3nc(C(C)C)no3)n2)cc1OC | 0.9% |
| CCN1c2cc(C(=O)Nc3ccc(Br)c(C)c3)ccc2C(=O)N2CCCC21 (stereo unspecified) | 0.0% |
| COCc1ccc2c(c1)c(OC(C)(C)C(=O)N1CCN(CCO)CC1)nn2Cc1cccnc1 | 8.4% |

Source: PubChem BioAssay
